Calb FLC = C. albicans growth modulation with fluconazole; C. albicans CaCi-2 (fluconazole-resistant clinical isolate) + fluconazole, Alamar Blue growth, 48 h; growth inhibition, % (concentration not given with the values); 300,000 tested, 0.57% active; AID 1979;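 active = most replicates above 75%; inconclusive = exactly half above 75%; inactive = most below 75%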;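 also: all wells also contain fluconazole at 8 µg/ml as a sub-toxic cotreatment; 0% = median of DMSO wells and 100% = median of geldanamycin control wells; wells of about 8 µL received 7.5 nL stock; the first replicate is given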
RanGTP-Impb inh = disruptors of Ran-importin-beta complex formation – biochemical, FRET, CFP-Ran, YFP-importin-beta, homogeneous, primary screen. AID 2216. 300,000 tested, 1.1% active. cell-free CFP-Ran/YFP-importin-beta FRET ratio. inhibition, % (no concentration beside the values);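 active = most replicates above 15%; inconclusive = exactly half above 15%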;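 also: 0% = DMSO wells and 100% = Ran loaded with GDP instead of GTP; wells of about 40 µL received 100 nL stock; the first replicate is given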
Beta apoptosis = blocks beta cell apoptosis; INS-1E cytokine-induced death, ATP luminescence, 48 h; percent of positive-control rescue, neutral wells zero; AID 435005; protection from apoptosis, % (concentration not given with the values); 300,000 tested, 0.8% active;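 active = all replicates at 75% or more, or half of them and the mean; inconclusive = half reach 75% but not the mean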;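 also: 0% = cytokine-treated negative control wells and 100% = positive control rescue; higher means more ATP so stronger rescue from cytokine killing; wells of about 40 µL received 100 nL stock; the first replicate is given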
rRNA inh HTS = inhibitors of bacterial rRNA selective over humanized ribosomes; E. coli WT GFP vs humanized-ribosome RFP mutants, fluorescence, 24 h; stronger effect = lower value; DMSO median 0, no signal -100; GFP signal change (wild-type ribosome), % (concentration not given with the values); 350,000 tested, 1.6% active; AID 720706;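 active = significant combined selectivity score with lowered wild-type GFP, culture density cut under 30%, mutant RFP and density less affected; inactive = any of these conditions unmet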; also: one replicate is shown; some compounds called inactive have numbers as strong as hits
T cruzi repl = T. cruzi replication inhibition. 300,000 tested, 1.4% active. T. cruzi beta-gal in NIH3T3, luminescence, 90 h. AID 1885. inhibition, % (no concentration beside the values);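 active = mean inhibition across valid replicates above about 55%, limit read from the data; inconclusive = mean below that limit but half or more replicates reach it; inactive = mean below it, under half of replicates reach it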;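 also: signal also drops with host cell toxicity which is not excluded here; 0% = plate median of DMSO wells and 100% = zero luminescence signal; higher percent means less beta-gal luminescence so fewer parasites; stock transfer was 50 nL into about 50 µL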
FGF22 binding = binders of recombinant human FGF22 by thermal shift. SYPRO orange fluorescence; percent of sucrose octasulfate shift, DMSO zero. calls only at 9.99 µM. 340,000 tested, 1.5% active;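 active = melting point raised past a set limit in the mean and every replicate; inconclusive = no clear call; three in four hits are not shown here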
Target sequence (Q9HCT0 whole entry, looked up): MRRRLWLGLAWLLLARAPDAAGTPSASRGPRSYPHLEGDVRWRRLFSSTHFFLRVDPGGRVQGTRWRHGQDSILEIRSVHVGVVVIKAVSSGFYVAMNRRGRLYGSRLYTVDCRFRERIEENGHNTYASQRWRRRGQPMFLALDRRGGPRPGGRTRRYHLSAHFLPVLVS
ALR inh = inhibitors of human sulfhydryl oxidase ALR; 290,000 tested, 3.8% active; AID 485317; inhibition, % (concentration not given with the values); P55789; purified ALR, DTT oxidation, H2O2 HRP-luminol luminescence;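 active = mean and each replicate at 75% or more; inconclusive = only one of the two met; inactive = neither met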;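 also: stock transfer was 7.5 nL into about 7.5 µL; 0% = neutral wells and 100% = wells with inactivated enzyme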
Target sequence (P55789 whole entry, looked up): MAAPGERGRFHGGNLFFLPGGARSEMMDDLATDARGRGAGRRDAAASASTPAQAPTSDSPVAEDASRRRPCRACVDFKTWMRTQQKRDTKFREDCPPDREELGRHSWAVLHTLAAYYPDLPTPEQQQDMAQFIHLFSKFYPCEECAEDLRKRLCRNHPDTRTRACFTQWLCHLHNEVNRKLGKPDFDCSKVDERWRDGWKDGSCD
MLL AF4-AF9 inh = MLL-AF4/AF9 protein interaction inhibition; P42568; AlphaScreen, biotin-AF4 peptide binding to FLAG-AF9; inhibition, % at 10 µM; 350,000 tested, 0.47% active; AID 651704;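 active = every replicate reaching a set inhibition limit, whatever the replicate mean, cut at about 25% in these data; inconclusive = mean inhibition reaches that limit but some replicates miss it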;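 also: 0% = plate neutral control median and 100% = total signal loss; the record names both 10 and 1 µM as test concentration; the first replicate is given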
Target sequence (P42568 whole entry, looked up): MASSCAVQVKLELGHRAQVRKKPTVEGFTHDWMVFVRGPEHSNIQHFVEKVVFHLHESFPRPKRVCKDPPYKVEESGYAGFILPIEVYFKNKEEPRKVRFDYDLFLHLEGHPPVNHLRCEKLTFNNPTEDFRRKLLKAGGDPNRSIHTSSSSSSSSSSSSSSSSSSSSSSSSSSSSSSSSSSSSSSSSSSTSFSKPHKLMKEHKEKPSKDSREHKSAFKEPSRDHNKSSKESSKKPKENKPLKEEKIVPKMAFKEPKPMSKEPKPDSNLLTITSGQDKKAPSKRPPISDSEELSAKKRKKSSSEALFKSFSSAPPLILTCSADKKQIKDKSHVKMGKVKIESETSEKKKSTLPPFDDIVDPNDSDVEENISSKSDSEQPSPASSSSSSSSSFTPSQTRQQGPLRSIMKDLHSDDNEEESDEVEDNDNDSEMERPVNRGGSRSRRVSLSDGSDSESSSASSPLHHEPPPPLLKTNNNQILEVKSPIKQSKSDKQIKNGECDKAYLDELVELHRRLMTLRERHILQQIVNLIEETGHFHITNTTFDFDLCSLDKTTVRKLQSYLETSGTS
rRNA inh HTS OD600 = second read-out of rRNA inh HTS, no call of its own (marks repeat the call); OD600 change, %; measured here: OD600 growth;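 optical density of the mix in the first replicate; 0 = DMSO median and -100 = no signal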
rRNA inh HTS RFP = second read-out of rRNA inh HTS, no call of its own (marks repeat the call); RFP signal change, %; measured here: RFP humanized mutant strains;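 first replicate; 0 = DMSO median and -100 = no signal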
Numbers without * were called inactive; i = inactive; u = inconclusive; x = no result given; & = joins results of further samples. Not all compounds are listed. The share of hits here may be higher or lower than overall.

Order of results: Calb FLC	RanGTP-Impb inh	Beta apoptosis	rRNA inh HTS	rRNA inh HTS OD600	rRNA inh HTS RFP	T cruzi repl	FGF22 binding	ALR inh	MLL AF4-AF9 inh
1) CCOc1ccc(N=C2NC(=O)SC2CC(=O)OC)cc1 (stereo not drawn)
  -19.1	-1.4	-2.7	-2.2	-5.5	-0.2	-7.4	i	-3.6	2.7
2) COc1ccc(C(=O)NC(=S)NCc2cccnc2)cc1OC
  u	-0.3	-7.0	-28.5*	-22.1*	-0.3*	-6.9	x	8.4	-3.0
3) C/C(=N\NS(=O)(=O)c1ccccc1)c1cccc(NC(=O)c2cccc(Cl)c2)c1
  20.9	-4.1	-4.2	x	x	x	2.1	x	-1.0	x
4) COc1cc(NC(=O)CCc2nnc3ccc(N4CCC5(CC4)OCCO5)nn23)cc(OC)c1
  -0.2	3.4	3.0	-1.9	12.5	1.0	-0.6	i	-3.8	-0.9
5) CCOC(=O)C1CCCN(C(=O)c2cc(S(=O)(=O)N3CCCCC3)ccc2C)C1 (stereo not drawn)
  3.0	-4.0	0.9	-1.2	-5.9	-0.5	9.0	i	x	-0.9
6) CC(C)CNS(=O)(=O)c1ccc(CCC(=O)N2CCN(Cc3ccccc3)CC2)cc1
  7.3	1.4	7.6	x	x	x	16.7	x	-0.9	x
7) NC(N)=NC(N)=Nc1cccc(Cl)c1
  26.1	6.7	-7.4	x	x	x	0.1	i	-17.9	0.4
8) Cc1ccc(S(=O)(=O)Cc2ccc(C(=O)NCCc3ccccc3)o2)cc1
  -6.3	0.2	-0.3	-6.3	-11.3	2.6	-5.3	i	0.6	-2.0
9) Cc1ccc2c(c1)N(Cc1cccc(C#N)c1)C=NS2(=O)=O
  7.9	-2.3	x	6.8	0.0	-5.5	-2.4	i	x	-0.2
10) Cc1ccc(S(=O)(=O)NCC(=O)OCc2cc(=O)oc3c(C)c(C)ccc23)cc1C
  x	x	-4.8	-1.8	-2.3	7.2	x	i	-2.3	-5.5
11) CN(C)CC/C=C1/c2ccccc2Sc2c(O)cc(Cl)cc21
  -7.5	5.1	-2.9	x	x	x	10.4	x	0.8	x
12) N#Cc1cccc(C(=O)Nc2cc(S(=O)(=O)N3CCOCC3)ccc2N2CCCC2)c1
  x	x	-5.6	-0.4	4.1	-1.9	x	i	-6.0	-2.5
13) C[C@@H]1CN([C@H](C)CO)C(=O)c2cc(NC(=O)Nc3ccc(C(F)(F)F)cc3)ccc2O[C@H]1CN(C)S(=O)(=O)c1ccccc1
  x	x	40.1	-1.0&-2.5	-2.6&9.5	-2.1&0.3	x	i	0.8	0.4
14) CCc1ccc(N(CC(=O)NC(C)(C)C)C(=O)CNC(=O)c2cccs2)cc1
  -0.9	2.0	-2.0	5.2	11.6	2.8	-2.9	i	-3.0	-2.5
15) CCn1c(C)cc2c(c1=O)C(c1ccccc1)C(C(=O)OC)=C(N)O2 (stereo not drawn)
  4.7	42.5*	-2.0	x	x	x	-8.6	x	-3.7	0.0
16) COC(=O)c1[nH]c2cc(OC)ccc2c1NC(=O)c1ccc2c(c1)OCO2
  -21.8	-2.3	x	x	x	x	1.6	x	11.2	x
17) CN(CCNC(=O)c1ccc(CS(=O)(=O)c2ccc(Br)cc2)o1)CCc1ccccc1
  -8.2	-1.5	-3.9	3.2	1.3	0.6	37.4	i	-37.3	3.8
18) COCc1cc(C)nc2sc(C(=O)OC(C)C)c(N)c12
  -12.2	-2.4	1.7	x	x	x	37.5	x	2.3	x
19) CC(=O)C1=C(C)NC(SCC(N)=O)=C(C#N)C1c1sccc1C (stereo not drawn)
  1.2	-3.6	x	-18.4	-10.0	-1.1	10.8	i	-2.9	-34.6
20) Cc1cnc(C(=O)OCC(=O)Nc2ncc(Cl)cc2Cl)cn1
  x	x	-7.3	4.9	14.9	0.7	x	i	x	0.6

Record cards, as listed above. Values in the order: Calb FLC | RanGTP-Impb inh | Beta apoptosis | rRNA inh HTS | rRNA inh HTS OD600 | rRNA inh HTS RFP | T cruzi repl | FGF22 binding | ALR inh | MLL AF4-AF9 inh
C[C@@H]1CN([C@H](C)CO)C(=O)c2cc(NC(=O)Nc3ccc(C(F)(F)F)cc3)ccc2O[C@H]1CN(C)S(=O)(=O)c1ccccc1 as listed: x | x | 40.1 | -1.0&-2.5 | -2.6&9.5 | -2.1&0.3 | x | i | 0.8 | 0.4
CC(=O)C1=C(C)NC(SCC(N)=O)=C(C#N)C1c1sccc1C (stereo not drawn) as listed: 1.2 | -3.6 | x | -18.4 | -10.0 | -1.1 | 10.8 | i | -2.9 | -34.6

Next part
Order of results: Calb FLC	RanGTP-Impb inh	Beta apoptosis	rRNA inh HTS	rRNA inh HTS OD600	rRNA inh HTS RFP	T cruzi repl	FGF22 binding	ALR inh	MLL AF4-AF9 inh
21) O=C1CSC(c2cccc(F)c2)N1c1c(F)cccc1F (stereo not drawn)
  -3.9	-0.3	3.8	0.3	-4.0	2.3	-8.9	i	-3.6	-0.9
22) COC(=O)CN1C(=O)COc2ccc(S(=O)(=O)N3CCCCCC3)cc21
  6.6	2.3	-3.2	0.5	9.9	-9.6	6.9	i	-1.0	-7.4
23) C/C(=N/N=C1/NC(=O)CC(C(=O)Nc2ccccc2)S1)c1cccs1 (stereo not drawn)
  37.4	5.6	-0.2	-23.1	-20.6	-4.8	-0.4	i	52.1	1.0
24) O=C(Nc1nnc(C2CC2)s1)C1CCCCC1
  x	x	-3.6	3.3	13.5	-3.1	x	i	-2.7	-1.6
25) COc1ccccc1N1CCN(Cc2cc3c(cc2Br)OCCO3)CC1
  0.3	0.0	-5.4	-8.7	-23.5	-0.6	6.1	i	20.4	3.6
26) Cn1c(-c2c(N)n(CCc3ccccc3)c3nc4ccccc4nc23)nc2ccccc21
  93.6*	-29.3	44.5	-9.1	0.2	12.2	51.6	i	-0.5	-11.8
27) COc1cc(/C=C2\CCCc3c2nc2ccccc2c3C(=O)O)cc([N+](=O)[O-])c1O
  11.4	u	-4.7	4.5	-5.8	-0.9	2.0	i	42.5	3.4
28) Cc1c(NC(=O)CSc2ncccn2)c(=O)n(-c2ccccc2)n1C
  -5.9	-1.6	-2.1	23.3	10.6	-0.8	-3.6	i	x	-6.5
29) O=C(/C=C/c1cccs1)Nc1sc2c(c1C(=O)O)CCCC2
  1.4	-4.9	-3.1	-9.0	-25.7	-2.5	-3.8	i	88.2*	8.8
30) NCCCN1CCOCC1
  u	1.3	-10.9	x	x	x	-10.6	x	-0.6	x
31) Cc1cc(NC(=O)c2oc3ccccc3c2C)ccc1-n1cnnn1
  12.0	-0.2	4.9	-12.3	-7.4	2.2	17.8	x	-2.3	-3.1
32) O=C(CSc1ccc(Cl)cc1)c1ccco1
  -6.7	7.7	-20.3	x	x	x	25.7	x	43.3	x
33) COCc1nn2c(N)c(C#N)cnc2c1-c1ccccc1
  6.3	-1.1	-6.6	x	x	x	-4.6	x	-5.3	x
34) O=C(CN1C(=O)CSc2ccc(S(=O)(=O)N3CCOCC3)cc21)NCc1ccc(F)cc1
  -2.5	1.5	3.8	9.3	-3.8	1.3	-13.7	i	0.2	0.1
35) Cc1ccc(C(=O)Nc2ccccc2-c2ccccc2)cc1S(=O)(=O)Nc1cccc(C)c1C
  18.0	-1.1	18.3	x	x	x	62.4*	x	-5.1	x
36) Cc1ccc(NC(=O)CSc2nnnn2C2CCCC2)cc1S(=O)(=O)N1CCOCC1
  x	x	-0.3	x	x	x	x	i	-7.0	2.6
37) CCOC(=O)c1c[nH]c2c3c(ccc2c1=O)CCCC3
  -4.9	u	-0.4	x	x	x	16.7	x	-23.8	x
38) COc1ccc(Cl)cc1NC(=O)CN(C)S(=O)(=O)c1cccs1
  5.2	-0.5	0.4	-32.5*	-22.5*	5.3*	-6.5	i	-8.3	-1.1
39) COc1ccccc1CC(=O)Nc1cccc2c1CCCC2
  -0.6	-0.1	-4.5	7.0	4.3	1.4	-8.9	i	1.3	0.7
40) O=C(CCNC(=O)c1ccccc1Cl)Nc1ccc2c(c1)OCO2
  -12.5	-6.6	6.8	x	x	x	-11.9	x	0.8	x
41) Cc1cccc(CS(=O)(=O)Cc2ccc(C(=O)NCCc3ccccc3)o2)c1
  3.3	0.3	4.1	-3.4	-5.3	-0.3	11.6	i	7.4	-0.5
42) C/C(N)=C(/C#N)C(=O)CSc1nnnn1-c1ccc(C)cc1C
  14.2	2.3	15.6	x	x	x	-41.1	x	-7.5	x
43) COc1ccc(C(=O)Nc2ccc(Cn3ccnc3)cc2)cc1OC
  0.5	-0.2	0.8	-7.2	1.4	-2.7	-5.5	i	x	-7.6
44) COc1cc(NS(=O)(=O)c2ccc(NC(=S)NC(=O)c3ccc(Br)cc3)cc2)ncn1
  u	2.8	-2.2	12.5	13.9	0.0	-2.7	i	x	-8.8
45) CC(=O)Nc1ccc(S(=O)(=O)N(C)CC(=O)OCC(=O)N2CC(C)OC(C)C2)cc1 (stereo not drawn)
  -5.3	4.7	-3.2	2.6	5.5	-1.9	-14.5	i	1.2	0.6
46) COc1ccc(CNC(=O)c2cc(=O)c3cc(C)c(C)cc3o2)cc1
  3.8	-2.0	0.5	3.1	9.8	-4.0	2.1	i	22.5	-0.7
47) COc1ccc(-c2nc(CS(=O)(=O)CC(=O)NC3CCC(C)CC3)c(C)o2)cc1 (stereo not drawn)
  -4.5	-0.9	0.0	3.6	4.0	1.6	4.4	i	98.5*	-0.2
48) COC(=O)c1ccccc1NC(=O)CN1CCN(Cc2ccccc2)CC1
  -16.1	-3.4	0.6	1.8	-2.5	0.7	6.9	i	18.7	1.5
49) CC(C)(C)c1ccc(NC(=O)CCNC(=O)c2ccco2)cc1
  -3.1	-1.7	x	-9.4	-30.0	2.5	-8.4	i	-1.2	-0.7
50) Nc1ncc([N+](=O)[O-])c(Oc2ccccc2F)n1
  12.7	1.3	-2.8	10.4	8.6	7.2	-22.1	i	x	3.1
51) CCOc1ccccc1N(C(=O)Nc1ccc(Cl)cc1)C1=NCCS1
  x	x	2.9	-21.2*	-11.4*	0.5*	2.3	x	-5.5	-1.0
52) CCCC(=O)Nc1sc(C)c(-c2ccc(C(C)CC)cc2)c1C#N (stereo not drawn)
  17.4	-1.0	-0.4	9.8	13.8	-8.6	-10.9	i	-7.2	-0.6
53) CCc1nc2ccccc2c(=O)n1NC(=O)c1c(O)c2ccccc2[nH]c1=O
  51.3	u	-1.9	x	x	x	-17.3	x	-3.8	x

Compound activity (PubChem BioAssay)
